STK33 inh: blocks human STK33 kinase activity; inhibition, % at 10 µM; purified STK33, MBP phosphorylation, ADP-Glo luminescence; AID 2661; 0.073% of 320,000 active;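 active means inhibition at or above 25%, using the most active replicate where run in duplicate; inactive means inhibition below 25%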
Target sequence (Q9BYT3 whole entry, looked up): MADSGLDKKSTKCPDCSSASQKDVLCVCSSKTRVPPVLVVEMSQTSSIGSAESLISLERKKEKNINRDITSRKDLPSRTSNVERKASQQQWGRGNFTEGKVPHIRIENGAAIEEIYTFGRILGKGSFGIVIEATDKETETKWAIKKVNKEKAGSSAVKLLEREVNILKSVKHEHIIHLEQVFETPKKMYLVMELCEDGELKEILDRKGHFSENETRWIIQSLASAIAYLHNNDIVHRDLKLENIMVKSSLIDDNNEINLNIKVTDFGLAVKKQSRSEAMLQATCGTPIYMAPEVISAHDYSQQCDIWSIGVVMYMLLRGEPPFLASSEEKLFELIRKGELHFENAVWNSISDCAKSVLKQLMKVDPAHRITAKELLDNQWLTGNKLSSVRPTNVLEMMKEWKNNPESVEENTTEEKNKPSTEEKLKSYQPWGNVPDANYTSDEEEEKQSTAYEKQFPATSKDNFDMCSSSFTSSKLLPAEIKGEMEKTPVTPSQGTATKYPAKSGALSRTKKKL
Numbers without * were called inactive.

SMILES	STK33 inh
CCOC(=O)CCCNC(=O)COC(=O)c1cc(Br)c(Br)s1	-2.3
Cc1n[nH]c(C)c1S(=O)(=O)N1CCN(C(=O)c2ccco2)CC1	-1.7
CC(=O)Nc1cccc(C(=O)OCC(=O)c2ccc(S(=O)(=O)N3CCCCC3)cc2)c1	2.1
Cc1ccc(CNC(=O)c2oc3ccc(S(=O)(=O)N4CCC5(CC4)OCCO5)cc3c2C)cc1	0.4
O=C(N/N=C\c1ccc(Cl)s1)c1ccc(Cn2cccn2)o1	-0.5
CCCCC1=CC2=C(c3ccco3)C(=O)C(C)(OC(=O)c3ccc(OC)cc3)C(=O)C2=CN1C(CO)CO (stereo unspecified)	-1.9
COc1ccccc1NC(=O)c1c(C)nc2ccccc2c1C(=O)O	-2.0
COc1ccccc1CNC(=O)Cc1ccc(Br)cc1	-0.6
COc1ccccc1-c1nc(SCC(=O)N(C)c2ccccc2)c2c(=O)n(C)c(=O)n(C)c2n1	-2.1
CCOC(=O)c1cnc(C(F)(F)F)nc1Oc1ccccc1	0.2
Cc1ccc(C(=O)COC(=O)CNC(=O)CNC(=O)c2ccc(C)cc2)cc1	-5.2
COc1cccc(C(=O)Oc2cc(N)n(S(=O)(=O)c3ccc(C)cc3)n2)c1OC	-1.6
CCSc1nnc(NC(=O)/C=C/c2ccco2)s1	-0.8
CCOc1c2ccc(C(=O)NCc3ccc(OC(F)(F)F)cc3)cc2nn1CC	0.2
Nc1cc(Cl)c(N)cc1Cl	-0.8
CC(OC(=O)c1ccco1)C(=O)Nc1ccc(Cl)cn1 (stereo unspecified)	0.1
O=C(NCCc1c[nH]c2ccccc12)c1ccc2nc[nH]c2c1	3.0
OCC[C@@H]1C[C@@H](O)[C@H](O)[C@]2(CCc3ccccc3CO2)O1	-0.6
CC(C)(C)C(=O)NC(=S)Nc1cccc(C(=O)O)c1	-0.8
Cc1ccc(S(=O)(=O)NC(=O)NCC2CCN(S(=O)(=O)c3ccccc3)CC2)cc1	12
COc1ccc(OCC(=O)N/N=C(\C)c2cc3ccccc3o2)cc1	-0.8
Cn1c(C(=O)NCCN2CCOCC2)cc2c(=O)n3ccccc3nc21	0.7
CCN(CC)CCSc1nnc2c3cc(C)ccc3n(Cc3ccccc3)c2n1	0.6
Cc1nonc1-c1ccc2c(c1)OCO2	-1.1
O=C(COc1ncnc2c1cnn2-c1ccccc1)Nc1ccc(S(=O)(=O)N2CCCCC2)cc1	-1.2

In a second layout: results already given.
STK33 inh | molecule
-0.6 | OCC[C@@H]1C[C@@H](O)[C@H](O)[C@]2(CCc3ccccc3CO2)O1
0.2 | CCOc1c2ccc(C(=O)NCc3ccc(OC(F)(F)F)cc3)cc2nn1CC

Given as comma-separated lines: 3 of the compounds above.
smiles,STK33 inh
COc1ccc(OCC(=O)N/N=C(\C)c2cc3ccccc3o2)cc1,-0.8
Cn1c(C(=O)NCCN2CCOCC2)cc2c(=O)n3ccccc3nc21,0.7
CCN(CC)CCSc1nnc2c3cc(C)ccc3n(Cc3ccccc3)c2n1,0.6

The results go on:
SMILES	STK33 inh
COc1cc(/C=C/C(=O)OCC(=O)NC(=O)NC23CC4CC(CC(C4)C2)C3)ccc1OCC#N	0.1
COC(=O)COc1ccc(S(=O)(=O)Nc2ccc3c(c2)OCCO3)cc1Cl	-1.2
O=C1CC(Sc2ncn[nH]2)C(=O)N1c1ccccc1 (stereo unspecified)	-0.5
CCOC(=O)c1ccc(Oc2c(C)oc3cc(OS(C)(=O)=O)ccc3c2=O)cc1	-1.5
CCOC(=O)c1c(C)[nH]c(C(=O)CSc2nc3ccccc3o2)c1C	-0.6
O=C(C=C1NCCN1)c1ccccc1	-0.8
O=[N+]([O-])c1ccccc1CN1CCN(c2ncccn2)CC1	-2.2
O=C(NCc1ccccc1)N1CCn2c(nc3ccccc32)C1	0.1
N/C(Cc1cccs1)=N\OC(=O)COc1ccccc1Cl	-3.9
O=C(N/N=C\c1ccc2c(c1)OCO2)c1cncc(Br)c1	-0.1
CC(=O)c1cccc(NC(=O)C2CCCCC2)c1	3.9
O=C(COC(=O)c1ccc(Cl)c(S(=O)(=O)N2CCCC2)c1)NC1CCCCC1	-2.4
Cc1cccc(CSCc2ccc(C(=O)NCC3CCCO3)o2)c1 (stereo unspecified)	-1.5
CCOc1ccc(NC(=O)c2nn(C)cc2Br)cc1	2.5
O=C1C(=Cc2cccn2-c2ccc(O)cc2)C(=O)c2ccccc21	0.2
CNc1nc(-c2c(C)[nH]c3ccc(OC)cc23)cs1	0.6
CCCS(=O)(=O)n1nc(-c2ccc(OC)cc2)cc1N	-1.3
O=C(N/N=C/c1cc(Br)c(Br)s1)c1ccncc1	-1.9
CC(C)CCNC(=S)NC1CCCC1	3.1
CCCOc1cccc(-c2cc(C(=O)NN)c3ccccc3n2)c1	-1.3
CCOC(=O)c1ccc(NC(=S)NCCc2ccccc2)cc1	-1.0
Cc1ccc(OC(=O)CCC(=O)N2CCc3ccccc32)cc1	0.2
Cc1ccc(C(=O)NNS(=O)(=O)c2ccccc2[N+](=O)[O-])cc1	2.5
Cc1ccc(NC(=O)CSc2nnc(-c3cnccn3)n2Cc2ccco2)cc1	0.2
Cc1noc(C)c1COC(=O)c1cccnc1SCC(=O)Nc1ccc2c(c1)OCO2	-0.9

Next entries follow.
SMILES	STK33 inh
CCOCCCN(C(=O)c1snc(C(N)=O)c1N)C(C(=O)NC1CCCC1)c1ccc(OC)cc1 (stereo unspecified)	-0.5
CC(NC(=O)CN(C)Cc1cccs1)c1ccccc1 (stereo unspecified)	-1.3
CC(C)(C)n1nnnc1C(c1cccs1)N1CCN(C(=O)c2ccco2)CC1 (stereo unspecified)	0.7
O=C(NC1=NCCS1)c1cccc(NC(=O)c2ccco2)c1	1.1
CCOc1ccc2nc(SC3CC(=O)N(c4ccc(C)cc4)C3=O)sc2c1 (stereo unspecified)	2.4
C=CCC(NCc1ccco1)c1ccc(OC)cc1 (stereo unspecified)	-4.0
CCCCC(=O)N/N=C/c1ccc(Sc2cccc3cccnc23)o1	1.4
CCOC(=O)C1=C(O)/C(=C/c2ccc(OCC(=O)O)c(OCC)c2)SC1=Nc1ccc(OC)cc1	1.3
O=C(O)CCN1/C(=C/C=Nc2ccccc2)Oc2ccccc21	0.0
O=C(Oc1ccccc1N1CCOCC1)c1sccc1Br	-0.9
COc1ccc(C(=O)/C(=C\c2sccc2C)c2nc3ccccc3o2)cc1	-0.4
CC(=O)Nc1ccccc1S(=O)(=O)CC1CC1(Cl)Cl (stereo unspecified)	-0.1
CN(C)C(CNC(=O)CCc1nc2sc3c(c2c(=O)[nH]1)CCCC3)c1ccccc1 (stereo unspecified)	0.3
C/C(=N\NC(=O)c1cc(-c2ccc(C)s2)[nH]n1)c1ccco1	0.2
O=C(Nc1ccc2oc(=O)ccc2c1)c1ccc(-c2ccc(Cl)cc2)o1	-1.4
N#Cc1cc(NCC2CCCO2)c([N+](=O)[O-])cc1C#N (stereo unspecified)	-2.6
CCC(Oc1ccccc1)C(=O)Nc1ccsc1C(=O)OC (stereo unspecified)	-0.3
Nc1ncncc1-c1ccc2ccccc2c1	2.1
COc1ccc2c(c1)CC/C(=C\c1ccc(OC)c(Cn3nc(C)cc3C)c1)C2=O	2.6
CCn1c(CC(=O)Nc2ccccc2C)nnc1SCC(=O)NC1CCCC1	-0.8
CCOP(=O)(OCC)/C(=N/OC(=O)c1ccccc1C)C(N)=O	0.5
Cn1cc(Cl)c(C(=O)NC2CCCC2)n1	-0.9
CCC1Oc2nc(SC)nnc2-c2ccccc2N1C(=O)c1ccccc1 (stereo unspecified)	-0.7
Cc1onc(-c2ccccc2)c1C(=O)Nc1ncc([N+](=O)[O-])s1	-0.6
Nc1ccc(C(=O)NCC2(c3ccccc3)CCCC2)cc1	-1.8

Next section:
SMILES	STK33 inh
CC(C)(C)c1ccc(C(=O)N2CCCN(c3ccc([N+](=O)[O-])cn3)CC2)cc1	-1.3
CCOC(=O)N1CCN(C(=O)c2ccc3c(c2)N=C(C)c2cc(Cl)ccc2S3)CC1	-0.5
COC(=O)c1ccccc1NC(=O)Cn1c(=O)n(CCC(=O)NC2CCN(Cc3ccccc3)CC2)c(=O)c2ccccc21	-0.5
CCOC(=O)c1ccc(Nc2nc(N3CCOCC3)nc(N3CCOCC3)n2)cc1	2.5
O=C1c2ccccc2C(=O)N1CC(=O)N1c2ccccc2CCc2ccccc21	-1.3
COc1ccc(CCNCC(O)COc2cccc(C(C)=O)c2)cc1OC (stereo unspecified)	1.3
O=C(OCC(=O)C12CC3CC(CC(C3)C1)C2)c1cccnc1Cl	-1.0
C=CCNc1nc2c(c(=O)n(C)c(=O)n2C)n1Cc1ccc(F)cc1	-0.4
CC(C)CNC(=O)COC(=O)c1c2c(nc3ccccc13)CCC2	1.1
O=C(c1ccccc1S(=O)(=O)NCC(O)COc1ccc([N+](=O)[O-])cc1)N1CCCCC1 (stereo unspecified)	-0.2
CC(C)NC(=S)NC1(C)CCS(=O)(=O)C1 (stereo unspecified)	-1.0
CCOc1ccccc1CNC(=O)C1Cc2cc(S(=O)(=O)N3CCCCC3)ccc2N1C(C)=O (stereo unspecified)	-0.4
COc1ccc(S(=O)(=O)N2CCCC2C(=O)Nc2nc3c(s2)CCCC3)cc1 (stereo unspecified)	-1.4
O=C(CCc1ccccc1)OCC(=O)c1ccc(Br)cc1	-0.9
CCOC(=O)/C=c1\s/c(=C\c2ccc(C#N)cc2)c(=O)n1CC(=O)Nc1cccc(C)c1C	-1.0
O=C(CSc1nnc(-c2ccc(F)cc2)c2ccccc12)Nc1ccccc1Cl	-1.3
C=CCC1S/C(=N/N=C/c2cccs2)NC1=O (stereo unspecified)	0.7
O=c1[nH]c2cc3c(cc2cc1CN(CC1CCCO1)S(=O)(=O)c1ccc(Cl)cc1)OCCO3 (stereo unspecified)	-2.5
CCCCCCC1CC(CCC(=O)Nc2ccc([N+](=O)[O-])cc2)C(=O)O1 (stereo unspecified)	-5.1
Cc1ccsc1C1Nc2ccc3ncccc3c2C2=C1C(=O)CC(C)(C)C2 (stereo unspecified)	-0.3
COC(=O)CNC(=O)c1ccc(OC2CCN(C(=O)C3CC3)CC2)cc1	-1.9
CCOC(=O)c1[nH]c2ccccc2c1NC(C)=O	2.1
COC(=O)c1ccccc1NC(=O)C1CCN(S(=O)(=O)c2cc(OC)ccc2OC)CC1	-1.5
COc1ccccc1N1CCN(C(=O)c2ccc(N(C)S(=O)(=O)c3ccccc3)cc2)CC1	1.1
Cc1ccnc(NC(=O)Nc2ccc3c(c2)N(C)C(=O)CS3)c1	-0.3

Remaining list, next part:
SMILES	STK33 inh
COc1cccc2sc(Nc3nc(C)c(C(C)=O)s3)nc12	0.2
Cc1ccc(-c2nnc(SCC(=O)N3CCCC3)o2)cc1C	-1.2
COc1ccccc1CNS(=O)(=O)c1ccc(-c2cnc(C3CC3)o2)cc1	-0.7
Cc1ccc(C(=O)OC(C)CN2CCOCC2)cc1 (stereo unspecified)	12
O=C(NNC(=O)C1CCC1)c1ccc(Cl)cc1	-1.7
Cc1ccnc(SCc2cc(=O)c(OC(=O)c3ccc(Br)o3)co2)n1	-1.2
O=C(CCSc1ccccc1)NCc1cccnc1	-0.7
Fc1ccc(Br)cc1/C=N/n1cnnc1	0.3
COc1ccc(CNC(=O)NCCc2c[nH]c3ccccc23)cc1	0.6
Cc1ccc(C)c(NC(=S)N2CCC(NC(=O)c3cccc(F)c3)CC2)c1	0.4
O=C1/C(=C\c2ccc(O)c(O)c2)N=C2CCCCCN12	2.9
CCOC(=O)Cc1csc(NC(=O)c2ccc(S(=O)(=O)N3CCOCC3)cc2)n1	-0.4
O=[N+]([O-])c1ccc(S(=O)(=O)CC(CN2CCCCC2)N2CCCCC2)cc1 (stereo unspecified)	-1.8
CN(C)CCCN1C(=O)c2oc3ccc(Cl)cc3c(=O)c2C1c1cccnc1 (stereo unspecified)	-2.0
O=C(NCC1CCN(c2ccc(S(=O)(=O)N3CCOCC3)cc2)CC1)Nc1ccccc1	-0.5
COc1cc(/C=C(\C#N)c2nn(CCO)c(N)c2C#N)cc(OC)c1OC	0.7
Cc1ccc(CCNC(=O)CCS(=O)(=O)c2cc3c(cc2C)NC(=O)CO3)cc1	0.8
O=C(O)c1cc(NC(=O)c2ccc(Cl)c([N+](=O)[O-])c2)cc(C(=O)O)c1	-1.6
CC(C)CN(C(=O)COC(=O)c1ccccc1NCc1ccco1)c1c(N)n(Cc2ccccc2)c(=O)[nH]c1=O	0.0
Cc1cc(NS(=O)(=O)c2ccc(NC(=O)c3cccc(OC(F)F)c3)cc2)nc(C)n1	-0.5
O=C(NCCN1CCOCC1)C1CCC(=O)N1Cc1ccccc1Cl (stereo unspecified)	-1.6
O=C1CSC(=S)N1c1ccc(Cl)c(Cl)c1	-0.2
CN(C)c1ccc(C2C3C(=O)N(c4ccc(C(=O)O)cc4)C(=O)C3ON2c2ccccc2)cc1 (stereo unspecified)	-2.1
CNc1c(NC(=O)C2CCC(C)CC2)c(=O)oc2ccccc12 (stereo unspecified)	-0.5
Cc1ccc(C=Nc2ccccc2C#N)s1	-1.6

Further compounds follow.
SMILES	STK33 inh
O=C(CN(Cc1ccccc1C(F)(F)F)C(=O)CNC(=O)c1ccco1)NC1CCCC1	-1.9
CCCn1c(SCC(=O)N2CCOCC2)nnc1-c1ccncc1	-0.1
CC(C)CC(=O)NC(=S)Nc1ccc(CN2CCOCC2)cc1	-1.0
C=CCOc1ccc(C2CC(C)=NN2c2ccccc2)cc1 (stereo unspecified)	-1.0
O=C(Nc1ccc(NC(=S)NC(=O)C(c2ccccc2)c2ccccc2)cc1)c1ccccc1	0.3
C=CCN1C(=O)N(c2ccc(Cl)cc2)C(=O)C1CC(=O)Nc1ccc(F)cc1 (stereo unspecified)	-1.4
O=C(Nc1ccccc1)OC1CCC2CC1CCC2OC(=O)Nc1ccccc1 (stereo unspecified)	-0.8
COc1ccc(-n2c(SCC(=O)N3CCOCC3)nc3ccccc3c2=O)cc1	-0.7

Rewritten comma-delimited: part of the list above.
smiles,STK33 inh
O=C(CN(Cc1ccccc1C(F)(F)F)C(=O)CNC(=O)c1ccco1)NC1CCCC1,-1.9
CCCn1c(SCC(=O)N2CCOCC2)nnc1-c1ccncc1,-0.1
CC(C)CC(=O)NC(=S)Nc1ccc(CN2CCOCC2)cc1,-1.0
C=CCOc1ccc(C2CC(C)=NN2c2ccccc2)cc1 (stereo unspecified),-1.0
O=C(Nc1ccc(NC(=S)NC(=O)C(c2ccccc2)c2ccccc2)cc1)c1ccccc1,0.3

An excerpt of these results, as a markdown table.
| SMILES | STK33 inh |
| --- | --- |
| O=C(Nc1ccccc1)OC1CCC2CC1CCC2OC(=O)Nc1ccccc1 (stereo unspecified) | -0.8 |
| C=CCOc1ccc(C2CC(C)=NN2c2ccccc2)cc1 (stereo unspecified) | -1.0 |

The list is partial, and most or all hits are left out here.
